Screening data from PubChem.
Mtb growth – Mycobacterium tuberculosis H37Rv growth inhibition, cell based, confirmatory dose response (AID 1949) | most inactive calls were filed without a number and no value below 0 was filed | inhibition, % at 10 µg/mL, or IC50 in µg/mL where a hit was titrated | 100,000 tested, 1.6% active;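 active = confirmed in a dose series; inconclusive = about 50% or more but not retested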;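 note: bacteria grown 7 days with compound before Alamar blue readout; 0% = untreated bacteria and 100% = reference antibiotic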
* = called active by the depositor; i = inactive; ? = inconclusive. The list is partial (hit frequency here may not be typical).

Molecule,Mtb growth
O=[N+]([O-])c1cccc(-c2noc(-c3cccc(F)c3)n2)c1,i
CC1(C)CC2CC(C)(CN2C(=O)Nc2ccc3nsnc3c2)C1 (stereo unspecified),?
Cn1c(Cc2csc(N)n2)nnc1SC/C=C/c1ccccc1,1%
O=c1nc(/C=C/c2ccc(N3CCCC3)cc2)cc(C(F)(F)F)[nH]1,i
COc1ccc(Cl)cc1/C=C/[N+](=O)[O-],5.6µg/mL*
CC(=O)c1ccc(OC(=O)c2ccccc2I)cc1,27%
Cn1nnc(NC(=S)NC(=O)c2cccs2)n1,i
CC1(c2ccccc2)CC(C)(C)N(C(=O)c2cccs2)c2ccccc21 (stereo unspecified),i
O=C(CSc1nc2ccccc2o1)c1ccc(Br)cc1,2%
Cc1ccc(Cl)cc1NC(=O)C(Cl)Cl,i
O=c1[nH]c(N2CCN(c3ccccc3)CC2)nc2c1CCCC2,i
O=C(CSc1nnc(-c2ccncc2)n1-c1ccccc1)Nc1ccc(Cl)c(Cl)c1,i
Cc1c(NC(=O)c2cc3n(n2)C(C(F)(F)F)CC(c2ccco2)N3)c(=O)n(-c2ccccc2)n1C (stereo unspecified),0%
COC(=O)c1c(NC(=S)N2CCN(S(C)(=O)=O)CC2)sc2c1CCCCCC2,45%
COc1ccc(CNc2cccc(SC)c2)c(OC)c1,i
O=C(c1cccc(I)c1)N(C1CCCCC1)C1CCCCC1,15%
COc1ccc(CCNC(=S)Nc2ccc(C(=O)N3CCCCC3)cc2)cc1OC,i
Cc1ccc2c(Cl)c(C(=O)Nc3ccccc3Br)sc2c1,i
CCNc1nc(SC(C(C)=O)C(C)=O)nc(N(C)C)n1,i
CC(=O)Nc1ccc(NC(=S)Nc2cccc(C(F)(F)F)c2)cc1,i
Cc1cc(NS(=O)(=O)c2ccccc2)no1,i
O=C(Nc1ccccc1OC(F)F)c1ccco1,i
C=CCn1c(SCC(=O)NCCc2ccccc2)nc2sc3c(c2c1=O)CCC3,i
CCOC(=O)c1c(NC(=O)c2cccnc2)sc(C(=O)OC(C)(C)C)c1C,i
c1ccc(-c2noc(-c3ccco3)n2)nc1,i
CNC(=S)Nc1cccc2ccccc12,i
Cc1cc(-c2ccc(NC(=O)CCC(=O)O)c(C)c2)ccc1NC(=O)CCC(=O)O,i
Cc1ccc(-c2nn3c(=O)c4c(C)c(C)sc4nc3c3ccccc23)cc1,14%
CCc1cccc(C)c1NS(=O)(=O)c1ccc(SC)cc1,i
Fc1ccc(CN2CCN(c3ncnc4scc(-c5ccc(Cl)cc5)c34)CC2)cc1,23%
O=C(NCc1cccnc1)c1cc(-c2ccc(Cl)cc2)nc2ccccc12,1%
CCC(Oc1ccccc1)C(=O)NCCc1ccc(F)cc1 (stereo unspecified),4%
CC(CCc1ccccc1)NC(=O)N1CCOCC1 (stereo unspecified),i
CCn1c(SCC(=O)c2ccc(F)cc2)nnc1-c1ccc2c(c1)OCO2,i
COc1ccc(-c2cc(-c3cccs3)nc(SC)c2C#N)cc1,i
CC1=C(C(=O)OC(C)C)C(c2ccc(F)cc2)C(C(=O)OC(C)C)=C(C)N1,25%
O=C(c1ccccc1)c1ccc(OCC(O)Cn2cnc3ccccc32)cc1 (stereo unspecified),1.5µg/mL*
O=S1(=O)C=C(SCCN2CCCCC2)c2ccccc21,i
Cc1cc(C)nc(NC2CCCCC2)n1,i
O=C(NCCCn1ccnc1)c1cc(-c2cccnc2)nc2ccc(Br)cc12,5%
CCn1c(SCC(=O)Nc2ccc(C)cc2C)nnc1-c1cc2cccc(OC)c2o1,i
S=C(NCCc1cnc[nH]1)Nc1ccc(Oc2ccccc2)cc1,i
OC(COc1ccc(OCc2ccccc2)cc1)CN1CCOCC1 (stereo unspecified),i
O=C(Nc1ccc(N2CCN(C(=O)c3ccccc3)CC2)c(Cl)c1)c1cccnc1,13%
CCn1c(SCc2nc3ccccc3c(=O)[nH]2)nc2ccccc2c1=O,i
COC(=O)c1c(NC(=S)N2CCN(C(=O)c3ccco3)CC2)sc2c1CCC2,i
COC(=O)c1cc(NC(=O)CCCc2ccc(OC)c(C)c2)ccc1Cl,1%
CCC(CC)C(=O)Nc1nc2ccc([N+](=O)[O-])cc2s1,i
N#Cc1c(NC(=S)NC(=O)c2cncc(Br)c2)sc2c1CCCC2,?
CCOc1ccccc1NS(=O)(=O)c1ccc(C)c(C)c1C,i
Cc1cccc(C)c1OCCCCCN1CCC(C)CC1,i
CC(C)CCn1c(C2CC(=O)N(c3cccc(C(F)(F)F)c3)C2)nc2ccccc21 (stereo unspecified),7%
O=C(c1c(F)c(F)c(F)c(F)c1F)N1CCN(c2ccccc2F)CC1,3%
COc1ccccc1CC(=O)Nc1ccccc1NC(C)=O,i
CSc1ncc(Cl)c(C(=O)Nc2ccc(NC(C)=O)cc2)n1,i
Cc1ccc(-c2noc(CN3CCCCC3)n2)cc1,i
Cc1ccc(N2CCN(C(=O)c3ccccc3F)CC2)c(C)c1,3%
COc1cccc(C(=O)NCCC2=CCCCC2)c1,i
Cc1ccc(C(=O)ON2C(=O)CCC2=O)cc1Br,3%
CC1=NN(C(=O)c2ccc(C)cc2Cl)C(O)(C(F)(F)F)C1 (stereo unspecified),i

An excerpt of these results, field by field:
SMILES: OC(COc1ccc(OCc2ccccc2)cc1)CN1CCOCC1 (stereo unspecified)
  Mtb growth: i

SMILES: O=C(Nc1ccc(N2CCN(C(=O)c3ccccc3)CC2)c(Cl)c1)c1cccnc1
  Mtb growth: 13%

SMILES: CCn1c(SCc2nc3ccccc3c(=O)[nH]2)nc2ccccc2c1=O
  Mtb growth: i

SMILES: COC(=O)c1c(NC(=S)N2CCN(C(=O)c3ccco3)CC2)sc2c1CCC2
  Mtb growth: i

The list goes on.
Molecule,Mtb growth
COc1ccc(NC(=O)c2ccccc2NC(=S)NC(=O)Cc2ccccc2)cc1,i
CCN(CC)C(=O)CC(c1ccc(F)cc1)c1ccco1 (stereo unspecified),1%
Clc1ccc(Cc2nc(-c3cccnc3)no2)cc1,1%
O=C(Cn1c(C(F)(F)F)nc2ccccc21)NCCCn1ccnc1,i
CCc1cccc(C)c1NC(=O)C(C)NS(=O)(=O)c1ccc(C)cc1 (stereo unspecified),?
COc1ccc(C)cc1C(=O)Cc1cc2cccc(OC)c2oc1=O,i
Cc1ccc(N(Cc2ccco2)C(=O)c2cc3ccccc3oc2=O)cc1,i
NC(=O)C1(N2CCCCC2)CCN(C2CC(=O)N(c3cccc(Cl)c3)C2=O)CC1 (stereo unspecified),i
CCOC(=O)CN1CC(O)=C(C=NCc2ccccc2)C1=O,0%
O=C(Nc1ccncc1)C1CC1c1ccccc1 (stereo unspecified),i
CC(C)C(=O)Nc1ccc(NC(=O)c2ccc(COc3ccccc3)cc2)cc1,i
CCCC(=O)Nc1ccc(C(=O)N2CCc3ccccc32)cc1,i
Cc1ccc(CNC(=S)Nc2ccccc2Oc2ccccc2)cc1,4%
O=C(CSCc1c(Cl)cccc1Cl)Nc1ccc(F)c(F)c1,2%
CCC(C)NCCCOc1ccc(C)cc1OC (stereo unspecified),i
O=C(Nc1cc(F)c(F)cc1Cl)Nc1ccccc1C(F)(F)F,i
O=C(CCN1C(=O)c2ccccc2C1=O)Nc1sc2c(c1C(=O)NCc1ccco1)CCCC2,i
CCOc1ccc(NC(=O)CCC(=O)c2ccc(OC)cc2)cc1,i
CCCCN1C(=O)CC(C(=O)OC)=C1C,i
Cc1nnc(SCC(=O)c2ccc(C(C)(C)C)cc2)s1,i
COc1ccc(/C=N/N2CCOCC2)cc1COc1ccc(F)cc1,i
Cc1cccc(C)c1OS(=O)(=O)c1ccc(I)cc1,7%
COc1ccccc1N1CCN(C(=O)c2oc3cc(C)c(C)cc3c2C)CC1,2%
Cc1ccccc1COc1ccc(-c2nn[nH]n2)cc1,i
Cc1cccc(-n2c(SC(F)F)nnc2-c2cccs2)c1C,6%
CCCc1cc(=O)oc2cc(C)cc(OCc3ccc(F)cc3F)c12,4%
N#Cc1ccc(-n2nnc3ccccc3c2=O)cc1C#N,i
N#C/C(=C\c1ccc(I)cc1)S(=O)(=O)c1ccccc1,i
Cc1ccc(NC(=O)CCC(=O)NNC(=O)NC23CC4CC(CC(C4)C2)C3)cc1C,i
O=C(C1CCCN(Cc2ccccc2F)C1)N1CCCC1 (stereo unspecified),i

Retrieved by compound from the list above:
Molecule,Mtb growth
Cc1cccc(-n2c(SC(F)F)nnc2-c2cccs2)c1C,6%
O=C(CSCc1c(Cl)cccc1Cl)Nc1ccc(F)c(F)c1,2%
NC(=O)C1(N2CCCCC2)CCN(C2CC(=O)N(c3cccc(Cl)c3)C2=O)CC1 (stereo unspecified),i

Additional structures:
Molecule,Mtb growth
COc1ccc(CCNC(=O)COc2ccc(-c3ccc(C)cc3)cc2)cc1OC,2%
COc1ccc(C(=O)O)cc1NC(=S)NC(=O)c1ccccc1Br,i
Cc1cc(=O)oc2cc(OC(C)C(=O)N3CCCc4ccccc43)ccc12 (stereo unspecified),5%
O=C(CCC1CCCC1)Nc1ccccc1-c1ccccc1,i
Cc1c(CC(=O)O)c(=O)oc2c(C)c(O)ccc12,i
CC(=O)CSc1nc(C(C)(C)C)cc(C(F)(F)F)c1C#N,i
COC(=O)C(Oc1cc(C)cc2oc(=O)c3c(c12)CCCC3)c1ccccc1 (stereo unspecified),i
Cc1ccc2nc(-c3ccccn3)cc(C(=O)N3CCN(c4ncccn4)CC3)c2c1,i
C=CCn1c(COc2ccc(C(C)C)cc2)nnc1SCC(=O)NCCc1ccccc1,i
CCc1ccc(C2CC(c3ccc(OC)c(OC)c3)n3nc(N)nc3N2)cc1 (stereo unspecified),i
COc1ccc2c(c1)c(=O)oc1c(C)c(OCC(=O)c3ccccc3)ccc12,7%
Cc1cc(-c2ccccc2)nc(SCC(=O)Nc2ccc(SC(F)F)cc2)n1,3%
COc1ccc(CCNC(=S)Nc2ccc(Br)cc2)cc1OC,i
CCOc1ccccc1NC(=O)C(C)NS(=O)(=O)c1ccc(Cl)cc1 (stereo unspecified),2%
COC(=O)C1=CN(CCCN2CCCC2=O)C=C(C(=O)OC)C1c1ccccc1C(F)(F)F,i
O=C(CCc1ccccc1)NC(=S)Nc1cc(Cl)c(Cl)cc1Cl,i
Cc1ccc(Nc2nc(=O)[nH]nc2C)cc1C,i
Cc1cccc(-c2nc(C#N)c(N(C)C)o2)c1,i
COc1ccc(OC)c(NC(=O)CN(c2ccccc2Br)S(C)(=O)=O)c1,i
COc1ccc(S(=O)(=O)N(CCc2ccccc2)CC(=O)N2CCOCC2)cc1C,i
CCCc1cc(=O)oc2c(OCC)c(OCC)ccc12,i
CCCCn1c(C(C)O)nc2ccccc21 (stereo unspecified),6%
COc1ccc(F)cc1S(=O)(=O)Nc1ccc2ccccc2c1,3%
CCCn1nnc(NC(=O)c2ccc(OC(C)CC)cc2)n1 (stereo unspecified),i
COc1cc(C2Nc3cc(C)c(C)cc3NC3=C2C(=O)CC(C)(C)C3)cc(OC)c1OC(C)=O (stereo unspecified),3%
CSc1cccc(NC(=O)CN(c2ccccc2Cl)S(=O)(=O)c2ccc(C)cc2)c1,i
CCC(C)Oc1ccc(C(=O)NC(=S)Nc2ccc(NC(=O)C(C)C)c(OC)c2)cc1 (stereo unspecified),8%
Cc1cc(C)nc(SCCS(=O)(=O)Cc2ccc(Cl)cc2)n1,4%
Cc1ccc(C(=O)C(C)Oc2ccc(NC(=O)c3cccs3)cc2)cc1 (stereo unspecified),11%
CCCCS(=O)(=O)C1CCS(=O)(=O)C1 (stereo unspecified),1%

Part of the list above, with each value named.
canonical_smiles: Cc1cc(=O)oc2cc(OC(C)C(=O)N3CCCc4ccccc43)ccc12 (stereo unspecified)
  Mtb growth: 5%
canonical_smiles: CCCc1cc(=O)oc2c(OCC)c(OCC)ccc12
  Mtb growth: i

The list goes on.
Molecule,Mtb growth
Cc1cccc(Cc2cnc(NC(=O)CSc3nc(C)cc(C)n3)s2)c1,i
CCN1C(=O)CC(Nc2ccc(C)c(C)c2)C1=O (stereo unspecified),i
CC(=O)Nc1ccc(OCc2ccc(C(C)=O)cc2)cc1,i
CC(=O)c1nc(Nc2nc3ccccc3o2)ncc1C,34%
COC(=O)c1ccccc1NC(=S)NC(=O)COc1ccccc1Cl,i
O=C(NC1CCC(CC2CCC(NC(=O)C3CC3c3ccccc3)CC2)CC1)C1CC1c1ccccc1 (stereo unspecified),i
O=C(NCCC1=CCCCC1)Nc1ccc(Cl)cc1,i
CCCCC(=O)Nc1nc(-c2ccc(C)c(C)c2)cs1,10%
Cc1cc(I)ccc1NC(=O)Nc1ccccc1,1%
COc1ccc(C(C)NC(=O)c2cccc(C)c2)cc1OC (stereo unspecified),i
COC(=O)c1ccc(-n2c(SCCCc3ccccc3)nc3ccccc3c2=O)cc1,10%
Cc1cc(/C=C(/C#N)c2ccc(F)cc2)c(C)n1-c1ccccn1,i
Nc1nc(Nc2ccc(F)cc2)nc(C(F)(F)F)n1,5%
COc1nc(Nc2ccc(-c3nc4ccccc4o3)cc2)nc(OC)n1,4%
CC(=O)c1c(N2CCCC2)[nH]c(-c2ccccc2)nc1=S,?
COc1cc(OC)c(NC(=O)c2cccc(I)c2)cc1Cl,i
